# Mtb MbtI inh: inhibitors of Mycobacterium tuberculosis siderophore enzyme MbtI; P9WFX0; purified MbtI enzyme, fluorescence intensity read-out; inhibition, %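 (about 17 µg/mL by stock and volumes)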; 100,000 compounds, 0.89% hits;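 active = above 50% in both replicates, above 80% if mildly self-fluorescent; inactive = the rest, strongly fluorescent compounds included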;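 note: 0% = mean of negative and 100% = mean of positive controls; one replicate is shown; some compounds called inactive have numbers as strong as hits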
# Target sequence (P9WFX0 whole entry, looked up): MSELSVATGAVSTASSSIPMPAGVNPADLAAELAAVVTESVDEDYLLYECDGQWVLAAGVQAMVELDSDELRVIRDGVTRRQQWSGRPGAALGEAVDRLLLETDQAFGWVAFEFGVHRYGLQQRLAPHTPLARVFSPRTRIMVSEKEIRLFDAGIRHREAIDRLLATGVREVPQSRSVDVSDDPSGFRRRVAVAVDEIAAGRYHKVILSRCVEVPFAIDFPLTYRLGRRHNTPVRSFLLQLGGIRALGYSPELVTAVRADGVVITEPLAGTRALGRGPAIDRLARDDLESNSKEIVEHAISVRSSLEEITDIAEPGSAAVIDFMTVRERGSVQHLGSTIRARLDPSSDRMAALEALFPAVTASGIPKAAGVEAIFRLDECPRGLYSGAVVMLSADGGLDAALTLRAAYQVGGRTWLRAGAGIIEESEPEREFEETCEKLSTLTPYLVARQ
# Polio RdRp inh: poliovirus RNA polymerase inhibition; P03300; poliovirus polymerase elongation, fluorescence polarization; active compounds read low; % elongation, % (compound at 16.7 µg/mL); 150,000 compounds, 0.66% hits; AID 588519; in the data active = % elongation below about 90%; note: some results filed as inactive read as strong as hits
# Target sequence (P03300 1749-2209 limits assumed): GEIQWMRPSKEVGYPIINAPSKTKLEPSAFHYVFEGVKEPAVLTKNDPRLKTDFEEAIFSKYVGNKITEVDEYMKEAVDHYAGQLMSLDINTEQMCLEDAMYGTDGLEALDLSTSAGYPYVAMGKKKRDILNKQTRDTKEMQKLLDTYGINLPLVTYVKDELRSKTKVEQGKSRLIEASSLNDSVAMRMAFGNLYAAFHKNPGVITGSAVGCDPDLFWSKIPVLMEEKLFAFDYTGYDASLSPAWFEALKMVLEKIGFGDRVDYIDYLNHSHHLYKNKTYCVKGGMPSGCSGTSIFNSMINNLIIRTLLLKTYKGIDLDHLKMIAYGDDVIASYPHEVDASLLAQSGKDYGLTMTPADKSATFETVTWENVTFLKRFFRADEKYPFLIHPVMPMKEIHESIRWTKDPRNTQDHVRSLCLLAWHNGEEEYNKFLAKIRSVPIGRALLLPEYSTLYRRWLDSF
# MenB inh: inhibitors of Mycobacterium tuberculosis MenB enzyme | P9WNP5 | MenB enzyme assay, absorbance read-out; some hits fall short of the stated cut | inhibition, %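 (about 12 µg/mL by stock and volumes)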 | 100,000 compounds, 0.43% hits;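 active = mean of two replicates above 30%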;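 note: 0% = no compound and 100% = wells with inactive enzyme; the first replicate is given; strong numbers were not always called active; inactives centre near -10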
# Polio RdRp inh intensity: recorded beside Polio RdRp inh, whose call it bears; % elongation; measured here: total intensity read-out; formula for this scale not given here;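 total fluorescence in place of polarization; lower means less elongation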
# An asterisk follows results filed as active; · = not tested or not shown; & = joins results of further samples.
# Under each structure – Polio RdRp inh intensity | MenB inh | Mtb MbtI inh | Polio RdRp inh
O=c1nc(NCCO)ccn1-c1nc(-c2ccccc2)sc1-c1ccccc1
 : 104 | -14 | · | 97
C=CCn1c(=NC(=O)CSC(C)=O)sc2ccccc21
 : 105 | -36 | 7 | 102
Cc1ccc(-c2nc(C3CCN(S(=O)(=O)c4ccc(C(C)(C)C)cc4)CC3)no2)cc1
 : 103 | -10 | -7 | 101
CN(C)c1ccc(C(=O)OCC(=O)N(C2CCCCC2)C2CCCCC2)cc1
 : 115 | -1 | 3 | 112
CN1C(=O)/C(=C/c2cn(CC(=O)N3CCOCC3)c3ccccc23)c2ccccc21
 : 105 | -87 | 15 | 105
CCOC(=O)c1c(NC(C)=O)c2c3c(sc2n1Cc1ccc(F)cc1Cl)CCCC3
 : 102 | -13 | -7 | 103
C/C=C\C(=O)Nc1cc(-c2cn3cccnc3n2)ccc1C
 : 100 | 2 | 101 | 98
CC(NC(=O)COc1ccccc1)C(c1ccccc1)N1CCN(C)CC1 (configuration not stated)
 : 107 | · | -6 | 106
Cc1ccc(S(=O)(=O)c2nnn3c2nc(N2CCCC2)c2ccccc23)cc1
 : 107 | -6 | 162 | 101
O=C(CSc1nc2c(oc3ccccc32)c(=O)n1-c1ccccc1)Nc1ccccc1
 : 101 | -4 | -2 | 102
O=CN1CCN(C(=O)c2ccc(F)cc2)CC1
 : 100 | -5 | -12 | 101
C=CCNc1nnc(Cl)c2ccccc12
 : 101 | 13 | 59 | 101
CCOC(=O)c1c(C)n(C2CCCCC2)c2ccc(OCC(N)=O)cc12
 : 100 | 1 | 18 | 101
CCC(=O)Nc1ccc(C(=O)Cn2c(=O)oc3ccccc32)cc1
 : 116 | -9 | -4 | 108
COc1cccc(-c2cc(C(F)(F)F)nc(-n3cc(C)c(=O)[nH]c3=O)n2)c1
 : 102 | -18 | 10 | 105
CN(C)c1ccc(/C=N/NC(=O)C2SCCCS2)cc1
 : 111 | 3 | 71 | 104
Cc1cc(C)c2oc(-c3cc(N)cc(C)c3O)nc2c1
 : 103 | 2 | -11 | 102
CCOC(=O)N1CCN(C(=O)c2cn(-c3ccc(OCC)cc3)c(=O)c3cc(OC)c(OC)cc23)CC1
 : 100 | -17 | -5 | 99
Oc1c(CN2CCN(c3ncccn3)CC2)cc(Cl)c2ccccc12
 : 105 | -17 | 5 | 106
COC(=O)CSc1nc(-c2cccs2)ccc1C#N
 : 104 | -2 | · | 104
CCc1ccc(/C(N)=N/O)cc1
 : 97 | -11 | -6 | 96
O=C(CN(Cc1ccco1)C(=O)/C=C/c1ccco1)Nc1ccccc1Br
 : 104 | -6 | 24 | 103
CN(C)CCC(c1ccc(Br)cc1)c1ccccn1 (configuration not stated)
 : 101&103 | -4&1 | 0&-4 | 102&100
CCN(CC)C(=O)c1cc2sccc2n1Cc1ccc(F)cc1
 : 103 | -8 | 5 | 102
CCC(=O)NCC(c1ccco1)N1CCc2ccccc21 (configuration not stated)
 : 104 | -9 | -11 | 104
CCNC(=S)Nc1ccc(C)cc1
 : 109 | -15 | 1 | 94
CC(C)(C)NC(=S)NCc1ccc2c(c1)OCO2
 : 98 | -38 | 9 | 100
CCNC(=O)NC1(C(=O)N2CCC(Cc3ccccc3)CC2)CCCCC1
 : 99 | -18 | 4 | 100
CC1CC(NS(=O)(=O)c2cccs2)CC(C)(C)C1 (configuration not stated)
 : 100 | -9 | -5 | 102
O=C(COC(=O)c1cc(C(F)(F)F)cc(C(F)(F)F)c1)NC1CC1
 : 106 | · | -9 | 101

# Reprinted from the part before: 3 compounds, then new ones.
# Under each structure – Polio RdRp inh intensity | MenB inh | Mtb MbtI inh | Polio RdRp inh
CCNC(=O)NC1(C(=O)N2CCC(Cc3ccccc3)CC2)CCCCC1
 : 99 | -18 | 4 | 100
CC1CC(NS(=O)(=O)c2cccs2)CC(C)(C)C1 (configuration not stated)
 : 100 | -9 | -5 | 102
O=C(COC(=O)c1cc(C(F)(F)F)cc(C(F)(F)F)c1)NC1CC1
 : 106 | · | -9 | 101
CCn1cc(C(=O)OCC(=O)NCc2ccco2)c(=O)c2ccc(C)nc21
 : 101 | -8 | 6 | 96
COc1ccccc1CNCC(O)Cn1c2ccccc2c2ccccc21 (configuration not stated)
 : 106 | · | -14 | 102
Cc1ccccc1N1C=NC(=O)/C1=C\c1cccs1
 : 100 | 17 | -1 | 102
CC1CCc2cc(F)ccc2N1C(=O)CCN1C(=O)c2ccccc2S1(=O)=O (configuration not stated)
 : · | -19 | 9 | ·
CCCCCC(=O)N1CCN(CCn2c(C)c3c(=O)n(-c4nc5ccccc5s4)[nH]c3cc2=O)CC1
 : 129 | 11 | 2 | 87
CN1/C(=C/C2CC(=O)NC2=O)C(C)(C)c2ccccc21 (configuration not stated)
 : 104 | -6 | 7 | 102
O=S(=O)(/C=C/c1ccccc1)Nc1cc(Cl)ccc1-n1cncn1
 : 99 | 1 | 18 | 102
NS(=O)(=O)c1ccc(Nc2nncc(=O)[nH]2)cc1
 : 101 | -3 | 14 | 101
COc1ccc(S(=O)(=O)NCc2cccn2Cc2ccc(Cl)cc2)cc1
 : 103 | -6 | -15 | 101
CCN(CC)C(=O)C1CCCN(Cc2cc(Br)c(O)c(OC)c2)C1 (configuration not stated)
 : 99 | -21 | -5 | 98
Cc1ccc2c(c1)c1cccc3c1n2CCN3CCC(N)=O
 : 94 | -1 | · | 101
C1CCC[C@H]2CCCN3CC[C@H](CCCCCC[C@@H]4CCCN5CC[C@H](CC1)O[C@H]45)O[C@H]23
 : 104&102 | -9 | -1 | 104&101
Cc1noc(C)c1COc1cccc(C(=O)N2CCc3ccccc32)c1
 : 107 | -17 | -2 | 106
O=C(OCC(=O)N1CCCC1)c1cccc(Br)c1
 : 105 | · | -15 | 101
c1ccc(C2=Nc3ccccc3N=C(c3ccccc3)C2)cc1
 : 102 | -6 | -6 | 107
CCOC(=O)c1[nH]c(C)c(C(=O)OCCOc2cccc(C)c2)c1C
 : 106 | 5 | -92 | 105
CCNC(=O)c1c(O)c2ccccc2n(CC)c1=O
 : 103 | 6 | 27 | 104
O=C(Cn1c(CCCO)nc2ccccc21)N1CCc2ccccc21
 : 95 | -5 | 96* | 99
Cc1ccccc1-c1nccc2ccccc12
 : 107 | -16 | · | 102
CC(C)(C)Cc1nc(C2(c3ccc(Cl)cc3Cl)CC2)no1
 : 115 | -13 | -6 | 100
CC1=NN(c2ccccc2)C(=O)/C1=C/c1coc2ccccc2c1=O
 : 101 | 10 | -8 | 100
Cc1sc2nc(C(C)Sc3nnc(CN4CCCC4)n3Cc3ccccc3)[nH]c(=O)c2c1C (configuration not stated)
 : 124 | 8 | -101 | 114
Cc1ccc(-c2csc3nc(CN(C)C4CCN(C)CC4)[nH]c(=O)c23)cc1
 : 102 | -4 | 5 | 97
O=c1oc2ccccc2cc1-c1nc(-c2cccnc2)no1
 : 102 | 7 | 35 | 100
COc1cc(/C=C/C(=O)NC2CCCCC2)cc(S(=O)(=O)NCc2ccco2)c1OC
 : 95 | -28 | 4 | 101
COc1ccc2ncc(C(=O)c3ccccc3)c(N3CCCCC3)c2c1
 : 109 | -60 | -14 | 104
CCC(=O)OCn1nnc2ccccc2c1=O
 : 109 | -27 | 7 | 104
CN(C1CC2C=CC1C2)S(=O)(=O)c1cc(C(F)(F)F)cc(C(F)(F)F)c1 (configuration not stated)
 : 104 | -11 | -8 | 105
CCn1c(SC)nnc1C1CCCN(C2CCC(C)CC2)C1 (configuration not stated)
 : 103 | -63 | -5 | 104
C/C(=N\OCC(=O)Nc1cc(C)on1)c1cccs1
 : 99 | -26 | -5 | 101

# 3 of the compounds above, as labelled records.
> CCCCCC(=O)N1CCN(CCn2c(C)c3c(=O)n(-c4nc5ccccc5s4)[nH]c3cc2=O)CC1
  Polio RdRp inh intensity = 129; MenB inh = 11; Mtb MbtI inh = 2; Polio RdRp inh = 87
> CCn1cc(C(=O)OCC(=O)NCc2ccco2)c(=O)c2ccc(C)nc21
  Polio RdRp inh intensity = 101; MenB inh = -8; Mtb MbtI inh = 6; Polio RdRp inh = 96
> NS(=O)(=O)c1ccc(Nc2nncc(=O)[nH]2)cc1
  Polio RdRp inh intensity = 101; MenB inh = -3; Mtb MbtI inh = 14; Polio RdRp inh = 101

# (listing goes on)
# Under each structure – Polio RdRp inh intensity | MenB inh | Mtb MbtI inh | Polio RdRp inh
O=C(CN1C(=O)C2C3C=CC(C3)C2C1=O)NCC1(N2CCCCC2)CCCCC1 (configuration not stated)
 : 106 | 1 | 19 | 99
O=C(Nc1cccnc1)C1c2ccccc2Oc2ccccc21
 : 107 | 0 | -12 | 100
CC(C)CC(=O)NC1(C(F)(F)F)N=C2SCCN2C1=O (configuration not stated)
 : 99 | 4 | 0 | 101
CC1CC(C)(C)N(C=O)c2ccccc21 (configuration not stated)
 : 101 | -38 | -19 | 99
COc1c(C(=O)O)csc1Cl
 : 112 | -9 | -9 | 107
CC(C)(C)c1ccc(-c2nnco2)cc1
 : 105 | -19 | -8 | 103
CC(=O)Nc1ccccc1OC(C)C(=O)N1CC(C)CC(C)C1 (configuration not stated)
 : 93 | -24 | -10 | 105
O=C(CSCc1ccccc1)Nc1cc(=O)[nH]c(=O)[nH]1
 : 103 | -27 | 1 | 104
CCOc1cccc2cc(C(=O)NCc3ccccc3)c(=N)oc12
 : 104 | 6 | -6 | 99
Cc1ccc(-c2nn(-c3ccccc3)cc2/C=C(\C#N)C(=O)Nc2ccc(SC(F)F)cc2)o1
 : 107 | -26 | -10 | 98
OC1(c2ccccc2)C/C(=N\n2cnnc2)C=C1c1ccccc1 (configuration not stated)
 : 96 | · | -4 | 102
COc1ccc(NC2=NCCCCC2)nc1
 : 192 | -4 | -9 | 78
O=C(Nc1ccc(Cl)cc1)c1ccn[nH]1
 : 108 | -23 | · | 106
C=CCNC(=O)CN1CCC(O)(c2ccccc2F)CC1
 : 103 | -32 | -8 | 100
CN(Cc1cccs1)c1cc(=O)n2cc(Cl)ccc2n1
 : 103 | -30 | -5 | 103
CCOC(=O)CC1(c2ccccc2)SC(NC(C)=O)=NN1C(C)=O (configuration not stated)
 : 104 | -9 | 10 | 102
CC(=O)Nc1ccc(NC(=O)Nc2ccccc2)cc1
 : 105 | 19 | -2 | 101
Cn1ccc2c(OCC(=O)c3ccccc3)cccc2c1=O
 : 104 | -28 | 7 | 104
CC(C)N=C(N)CCn1cnc2c1c(=O)n(C)c(=O)n2C
 : 101 | -6 | -4 | 100
CCC(c1ccccc1)c1nnc(NC(=O)OC)s1 (configuration not stated)
 : 102 | 6 | 0 | 99
Cc1ccc(C)c(NCc2cn[nH]c2-c2ccc(Br)cc2)c1
 : 102 | -21 | -9 | 103
Clc1cccc2c(N3CCN(Cc4ccccc4)CC3)cnnc12
 : 101 | -8 | -12 | 101
Cc1ccccc1NC(=S)Nc1cc(NS(C)(=O)=O)ccc1C
 : 106 | 9 | 3 | 110
Cc1c(CN2CC3(C)CC2CC(C)(C)C3)c(=O)n(-c2ccccc2)n1C (configuration not stated)
 : 104 | -16 | · | 100
CNC(=O)C1Cc2ccccc2CN1S(=O)(=O)c1cccs1 (configuration not stated)
 : 107 | -13 | · | 105
CCN1CCN(C(=O)c2nc(-c3cccnc3)no2)CC1
 : 99 | 10 | -1 | 103

# An excerpt from above in order of molar mass, low to high:
# Under each structure – Polio RdRp inh intensity | MenB inh | Mtb MbtI inh | Polio RdRp inh
O=C(CSCc1ccccc1)Nc1cc(=O)[nH]c(=O)[nH]1
 : 103 | -27 | 1 | 104
CNC(=O)C1Cc2ccccc2CN1S(=O)(=O)c1cccs1 (configuration not stated)
 : 107 | -13 | · | 105
Clc1cccc2c(N3CCN(Cc4ccccc4)CC3)cnnc12
 : 101 | -8 | -12 | 101
